NPYLR7 agonist: mosquito NPYLR7 agonism | HEK293T NPYLR7/Galpha15, GCaMP6s calcium fluorescence | activation, % at 10 µM | 270,000 compounds, 0.15% hits | AID 1259423; in the data active = activation above about 40%;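 note: 0% = vehicle and 100% = reference agonist at the receptor; some compounds past the cut are filed as inactive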
NPYLR7 agonist max-min: also measured in NPYLR7 agonist; calls as there; activation, %; measured here: Max-Min RFU normalised activation; some inactives read as strong as hits;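 span of the calcium signal over five minutes; 0% = vehicle and 100% = native peptide agonist; compound fluorescence can raise it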
Numbers without * were called inactive; & = joins results of further samples.

SMILES	NPYLR7 agonist	NPYLR7 agonist max-min
COCC(=O)Nc1ccc(N2CCN(C(=O)NCc3ccco3)CC2)nc1	-3	-14
Cc1sc(-c2ccccc2)nc1CC(=O)N(C)CCC#N	8	5
O=C(/C=C/c1ccccc1)NCCSc1ncc(-c2ccc(Cl)cc2)[nH]1	2	-1
CCc1ccc(-c2cc(C(=O)N3CCC4(CC3)CN(C)CCN4C)[nH]n2)cc1	17	12
COc1ccccc1-c1ncc(CN2CCN3C(=O)CNC(=O)C3C2)s1 (stereo unspecified)	27	9
O=C(CN1CCc2sccc2C1c1cccc(F)c1)N1CCCN(C(=O)c2ccc3c(c2)OCO3)CC1 (stereo unspecified)	20	12
CC(C)(C)OC(=O)N1CCC(NCC2CCN(C3CC3)C2)C1 (stereo unspecified)	0	-1
COc1ccc2c(=O)c(-c3ccc4c(c3)OCCCO4)c(C)oc2c1	-8	-16
Cc1ccc(Cl)cc1-n1c(SCc2nc(C(=O)N3CCN(C/C=C/c4ccccc4)CC3)cs2)nnc1-c1ccco1	16	20
CCc1nn2c(ncc3c(=O)n(-n4cnnc4)ccc32)c1-c1ccc(Cl)cc1	6	6
O=C(NCCCn1cccc1)c1cnco1	21	15
O=C(CN1Cc2ccccc2OC(c2ccsc2)C1)NCc1cccc(-n2cccn2)c1 (stereo unspecified)	6	6
COc1ccc(CCN(Cc2sccc2C)C(=O)CN(CCN2CCCC2)C(=O)c2cccs2)cc1OC	-4	-2
COc1cc2c(cc1NS(C)(=O)=O)C(c1ccncc1F)CC(=O)N2 (stereo unspecified)	-8	-9
Cc1ccc(/C=C/S(=O)(=O)NCCCn2nc(-c3ccc(Cl)cc3)ccc2=O)cc1	-1	0
O=c1c2nc(N3CCOCC3)sc2c(-c2cccs2)nn1Cc1ccc(Cl)c(Cl)c1	-2	-6
CCn1c(C2CCCN(S(=O)(=O)c3cn(C)c(C)n3)C2)nn(C)c1=O (stereo unspecified)	-1	-1
CCCS(=O)(=O)NC(=O)C1(C)CCN1C(=O)c1ccccc1CCc1ccccc1 (stereo unspecified)	7	4
Cc1ccccc1-c1ncc(CN2CCCC(CO)(Cc3ccccc3)C2)cn1 (stereo unspecified)	18	7
CC(C)(C)C(=O)Nc1nc(-c2cc3ccccc3oc2=O)cs1	-2	-5
CCCc1cc(C(=O)N2CCCc3c(C(N)=O)cccc32)sc1C	0	-2
CN(Cc1cnn(-c2ccc(F)cc2)c1)Cc1cn(C)nc1-c1ccccc1F	6	-9
O=C(Cn1cc2c(n1)CCCC2)NC1CCCCCC1	0	-5
CC(C)NC(=O)Nc1cccc(C(=O)N(C)S(=O)(=O)c2ccc3c(c2)OCCO3)c1	9	6
COCC(C)(C)CNC(=O)c1c(C)cc(C)[nH]c1=O	9	4
CCCCC(=O)N1CCc2ccccc2C1c1ccccc1Cl (stereo unspecified)	13	5
CC1CCCC2(C1)OCC(C(=O)NC1CC1)N2C(=O)c1ccccc1F (stereo unspecified)	-4	6
CCn1cnnc1CN(C)C(=O)c1cc(COc2ccccc2F)[nH]n1	3	-3
Cc1cccc(-n2nnc3c(=O)n(CC(=O)N4CCc5ccccc54)cnc32)c1	-4	-8
CCOC(=O)NCCC(=O)NCCc1coc(-c2ccc(F)cc2)n1	11	8
CC(C)C1CN(C(=O)C2CCC(O)CC2)CCCN1Cc1ccc(F)cc1 (stereo unspecified)	8	3
O=C(Nc1cccc(-c2ccco2)c1)C1CCN(C(=O)Cc2cccs2)CC1	-2&-7	-8&-6
Cc1ccc(Cn2ccc(NC(=O)c3nc4ncccn4n3)n2)cc1	6	4
CCOc1ccc(-c2nc(C(=O)O)cs2)cc1	1	1
CC(=O)NC12CC3CC(C1)CC(C(=O)OCC(=O)C(C#N)=C(C)N)(C3)C2	-5	-11
COc1ccc(CN2CCC3(CC2)CC3C(=O)NCc2ccccc2C(F)(F)F)cc1C (stereo unspecified)	5	6
NC(=O)CN1CCCC(N2CCN(c3ccccc3F)CC2)C1 (stereo unspecified)	7	3
CS(=O)(=O)NC1CCN(Cc2cc3n(n2)CCNC3)CC1	6	2
O=C1CC(Cn2c(=O)oc3ccccc32)c2cc3cn[nH]c3cc2N1 (stereo unspecified)	1	-1
Nc1ccc(S(=O)(=O)NC2CCS(=O)(=O)C2)cc1 (stereo unspecified)	-1	-1
Cc1nc(NC(=O)N2CCCN(C3CCCCC3)CC2)nn1C	-7	-11
CC(C)(C)c1ccc(OCCOc2ccc(/C=C3/NC(=S)NC3=O)cc2)cc1	0	5
CC/C=C(\C)CN1CCC(CNC(=O)c2occc2C)C1 (stereo unspecified)	-7	-8
O=C1NC(=Nc2ccc(Br)cc2)SC1Cc1cccc2ccccc12 (stereo unspecified)	-6	-1
C=C(C)C1CC=C(C)C(=NNC(=O)C(=O)NN=C2CC(C(=C)C)CC=C2C)C1 (stereo unspecified)	2	0
CCOC(=O)c1cn[nH]c1S(=O)(=O)Nc1cccc(C(C)=O)c1	-2	-6
Cn1c(N2CC[C@H](O)C2)nc2cc(C(=O)N3CCC4(CCCO4)CC3)ccc21	21	9
O=C1C(=Cc2cn(-c3ccccc3)nc2-c2ccco2)SC(=S)N1C1CCS(=O)(=O)C1 (stereo unspecified)	-1	-5
COc1c2c(c(OC)c3occc13)OC1(CCN(C(=O)C3CCOC3)CC1)CC2=O (stereo unspecified)	5	3
NC(c1ccccc1)c1ccc(Br)cc1F (stereo unspecified)	2	-1
O=C(CN1Cc2ccccc2OC(c2ccsc2)C1)N1CCCC1c1nc2ccc(F)cc2[nH]1 (stereo unspecified)	11	-3
COc1ccc(CC(=O)Nc2c(C)nc3sc(C)c(C)n3c2=O)cc1OC	19	12
OCCC1CN(Cc2nc(-c3ccccc3)cs2)CCN1Cc1ccccc1F (stereo unspecified)	-5	-4
Cc1ccc(/C=C/C2=NC(=C\c3cccc(Br)c3)/C(=O)O2)cc1	-1	-7
Cc1ccc(Sc2ncccc2C(=O)NC(C)C)cc1C	-1	-4
CCN(Cc1cccc(F)c1)CN1C(=O)NC2(CCC(C)CC2)C1=O (stereo unspecified)	16	6
CCC1CN(Cc2ccncc2)CCC(=O)N1Cc1ccccc1 (stereo unspecified)	-2	-6
COC(=O)c1cccc(NC(=O)N2CC(=O)N3CCc4cc(F)ccc4C3C2)c1 (stereo unspecified)	7	13
CCCC1=NN(C(C)=O)C(C(=O)NCCN(C(C)C)C(C)C)O1 (stereo unspecified)	0	31
Cc1nc(SCC(=O)NC23CC4CC(CC(C4)C2)C3)c2c3c(sc2n1)CCCC3	2	-1

Whole records from above. Screens in order: NPYLR7 agonist	NPYLR7 agonist max-min
`CCC1CN(Cc2ccncc2)CCC(=O)N1Cc1ccccc1` (stereo unspecified) is listed with -2	-6
`Cc1ccc(/C=C/C2=NC(=C\c3cccc(Br)c3)/C(=O)O2)cc1` is listed with -1	-7
`OCCC1CN(Cc2nc(-c3ccccc3)cs2)CCN1Cc1ccccc1F` (stereo unspecified) is listed with -5	-4
`CCCC1=NN(C(C)=O)C(C(=O)NCCN(C(C)C)C(C)C)O1` (stereo unspecified) is listed with 0	31
`O=C1C(=Cc2cn(-c3ccccc3)nc2-c2ccco2)SC(=S)N1C1CCS(=O)(=O)C1` (stereo unspecified) is listed with -1	-5

Remaining list, next part:
SMILES	NPYLR7 agonist	NPYLR7 agonist max-min
COc1ccc(NS(=O)(=O)CCc2ccccc2)cc1S(=O)(=O)N(C)C	-4	-6
CCc1c(C)nc(-n2nc(C)cc2NC(=O)c2cccc([N+](=O)[O-])c2C)[nH]c1=O	8	1
O=C(N/N=C/c1ccc(COc2ccc(Br)cc2)o1)c1ccc2c(c1)OCO2	3	4
OC1(c2ccccc2F)CN(c2ccccc2)C2=[N+]1CCCS2 (stereo unspecified)	6	5
Cc1ccc(S(=O)(=O)NC(=O)c2ccc(Cl)nc2Cl)cc1	-2	-1
CCc1nc2ccc(C(=O)Nc3cccc(OC)c3)cn2c1N(C)Cc1cccs1	6	-5
CCOC(=O)c1c(C)[nH]c(C)c1C(=O)COC(=O)CN1C(=O)NC(CC)(CC)C1=O	2	5
COC(=O)NN=Cc1sc(N2CCCCC2)nc1-c1cccs1	-12	-18
CCc1nc2ccc(C(=O)NCCc3c[nH]c4ccccc34)cn2c1N(C)Cc1nccn1C	-5	-9
COC(=O)c1ccccc1C=C1N=C(c2ccc(OC)cc2)OC1=O	8	5
COCc1cccc(C(=O)Nc2ccc(S(=O)(=O)C3CCCC3)cc2)c1	-6	-8
O=C(NC1CCCC1)C1CC(=O)N(C2CCCCC2)C1 (stereo unspecified)	25	15
Cc1cc(Cl)ccc1NS(=O)(=O)c1ccc(F)c(F)c1F	0	0
Cc1ccc(CCNC(=O)N(C)Cc2nc3c(s2)CCCC3)cn1	1	2
Cc1ccc(N2C(=O)CC(Sc3ncccc3C(=O)O)C2=O)c([N+](=O)[O-])c1 (stereo unspecified)	-7	-9
CN1N=C(C(=O)NC2CCCc3c2cnn3-c2ccc(F)cc2F)CCC1=O (stereo unspecified)	4	5
COc1ccc(-c2noc(Cn3ccn4nc(-c5cccs5)cc4c3=O)n2)cc1OC	4	5
CCc1ccccc1NC(=O)Cn1nnc(C(=O)NCCc2ccc(OC)c(OC)c2)c1N	11	14
CC1(C(=O)Nc2nccs2)CCN1C(=O)C1(c2ccc(Cl)cc2)CC1 (stereo unspecified)	4	3
Cc1cc(=O)[nH]c(-n2nc(C)cc2NC(=O)c2cc(=O)c3ccccc3o2)n1	7	-2
NC(=O)c1c(Cl)c(Cl)c(Cl)c(Cl)c1Cl	-1	-3
O=C(O)c1ccc(CSc2nnc(-c3cccnc3)n2-c2cccc(Cl)c2)cc1	2	-2
CCC1CN(CCC(=O)NCCCn2ncc3ccccc32)Cc2cc(OC)ccc2O1 (stereo unspecified)	-1	-5
COCCNC(=O)c1cc(NC(=O)Nc2cccc3ccccc23)ccc1N1CCCCC1	32	28
CCc1ccc(NC(=O)C(C)Sc2nnc(CN3CCCC3)o2)cc1 (stereo unspecified)	2	11
O=C(c1ccc(F)cc1F)N1CCc2ccccc21	1	0
O=C(OC1(C2CC2)CC1)c1cccc(C(=O)N2CCCC2)n1	4	2
Cc1nc(SCc2ccc(C(=O)NCc3ccccn3)cc2)nc(N2CCN(c3ccccc3F)CC2)c1C	10	16
O=C(NN=Cc1cccc([N+](=O)[O-])c1)c1cc(-c2cc(Cl)ccc2Cl)n[nH]1	5	10
O=C(NCCCCc1ccccn1)C1CCC(=O)N(CCN2CCOCC2)C1 (stereo unspecified)	-3	-3

6 compounds already listed, sorted by molecular weight, ascending.
SMILES	NPYLR7 agonist	NPYLR7 agonist max-min
NC(=O)c1c(Cl)c(Cl)c(Cl)c(Cl)c1Cl	-1	-3
O=C(OC1(C2CC2)CC1)c1cccc(C(=O)N2CCCC2)n1	4	2
Cc1cc(=O)[nH]c(-n2nc(C)cc2NC(=O)c2cc(=O)c3ccccc3o2)n1	7	-2
CN1N=C(C(=O)NC2CCCc3c2cnn3-c2ccc(F)cc2F)CCC1=O (stereo unspecified)	4	5
O=C(NN=Cc1cccc([N+](=O)[O-])c1)c1cc(-c2cc(Cl)ccc2Cl)n[nH]1	5	10
COc1ccc(-c2noc(Cn3ccn4nc(-c5cccs5)cc4c3=O)n2)cc1OC	4	5

Part of the list above, field by field:
Cc1ccc(/C=C/C2=NC(=C\c3cccc(Br)c3)/C(=O)O2)cc1
  NPYLR7 agonist: -1 | NPYLR7 agonist max-min: -7

Cc1ccc(Sc2ncccc2C(=O)NC(C)C)cc1C
  NPYLR7 agonist: -1 | NPYLR7 agonist max-min: -4

(cont.)
SMILES	NPYLR7 agonist	NPYLR7 agonist max-min
NC(=O)Cn1cnc2c(nnn2-c2ccc(Cl)cc2)c1=O	-3	-9
CCc1nccn1CCC(=O)N1CC(=O)N(CC(C)C)CC(OCc2ccccc2F)C1 (stereo unspecified)	-1	-5
O=C(COC(=O)c1ccc(OC(F)F)cc1)NCC1CCCO1 (stereo unspecified)	-1	-2
COC(=O)c1c(NC(=O)C(C#N)=Cc2cc(Br)ccc2O)sc2c1CCCC2	-2	-5
Cc1ccc(-n2ncc3c(C)nn(CC(=O)Nc4ccc5c(c4)OCO5)c(=O)c32)cc1C	7	3
Cc1ccc(NC(=O)c2sccc2S(=O)(=O)N2CCOCC2)cc1	-2	-4
Cc1cc2nc(C)n(CCC(C)C)c2cc1C	2	5
CCOC(=O)N1CCN(C(=O)c2csc(CSc3nnc(-c4ccco4)n3-c3ccccc3OC)n2)CC1	-2	7
Cc1cc(C)cc(C(=O)Nc2c(C)nc3scc(C)n3c2=O)c1	4	-2
Oc1ccc(N2CCN(Cc3nc4ccccc4o3)CC2)cc1	0	-1
C/C=C\COC1CCCN(C(=O)Nc2ccc(C)cc2)C1 (stereo unspecified)	-18	-12
OCc1ccc(N2CCCC2)cc1F	-1	2
COc1ccccc1N1C(=O)CSC1c1ccccc1NC(=O)c1ccc(Cl)c([N+](=O)[O-])c1 (stereo unspecified)	12	17
CC1CCCN(S(=O)(=O)c2ccc(NS(=O)(=O)c3cccs3)cc2)C1 (stereo unspecified)	2	0
CCOC(=O)C1CCCN(C(=O)c2cc3n(n2)CCCN(C)C3)C1 (stereo unspecified)	-1	-9
CCOC(C)c1nc(COc2ccccn2)cs1 (stereo unspecified)	1	1
CCN(CC)C(=O)C1CCCN(C(=O)c2oc3c(C)c(C)ccc3c2C)C1 (stereo unspecified)	2	-1
O=C(NCc1ccco1)c1cc2nc(-c3ccc4c(c3)OCO4)cc(C(F)(F)F)n2n1	3	6
COc1cc(OC)nc(C(NC(=O)C2CCN(Cc3ccccc3F)CC2)c2ccc(Cl)cc2)n1 (stereo unspecified)	-2	-4
COC(=O)N=Nc1c(O)n(C)c2ccccc12	3	7
CCOC(=O)c1c(C)n(C)c2ccc(OC(=O)c3ccco3)cc12	3&-1	1&-5
Cc1onc(-c2ccccc2)c1C(=O)NCC(C)C	8&2	5&1
Cc1cccc(Oc2cnn(-c3cccc(Cl)c3)c(=O)c2Nc2cccc(C(=O)NCc3ccco3)c2)c1	9	12

Bioassay records as filed in PubChem BioAssay.

Some of the compounds tested. The share of hits here may be higher or lower than overall.
